GIRK2 activ: GIRK2 channel activation | HEK293-GIRK2 thallium flux, Thallos fluorescence | calls only for hits at 25 µM | hit rate 0.05% among 63,000;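 active means among the strongest 0.2% of first-round signals and kept after retests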;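 further: first round at about 10 µM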
Target sequence (P48051 whole entry, looked up): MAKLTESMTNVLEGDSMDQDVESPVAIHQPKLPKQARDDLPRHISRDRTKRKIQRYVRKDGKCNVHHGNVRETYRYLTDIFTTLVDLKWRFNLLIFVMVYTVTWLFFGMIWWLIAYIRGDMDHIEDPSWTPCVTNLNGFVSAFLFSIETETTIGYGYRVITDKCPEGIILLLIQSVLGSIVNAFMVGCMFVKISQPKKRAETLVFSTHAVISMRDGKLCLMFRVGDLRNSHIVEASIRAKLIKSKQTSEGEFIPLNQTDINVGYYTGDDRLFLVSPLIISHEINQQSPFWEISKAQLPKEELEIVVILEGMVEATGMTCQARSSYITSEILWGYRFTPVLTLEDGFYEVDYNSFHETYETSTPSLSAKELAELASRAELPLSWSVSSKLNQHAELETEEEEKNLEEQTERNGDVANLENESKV
Calls only; i = inactive. Only part of the results is shown (hit frequency here may not be typical).

Start of the data: the first five entries as a preview:
compound | GIRK2 activ
C[C@H]1CC[C@@]2(OC1)O[C@H]1CC3[C@@H]4CC[C@@H]5C[C@@H](O[C@@H]6O[C@H](CO)[C@@H](O[C@@H]7O[C@@H](C)[C@H](O)[C@@H](O)[C@H]7O)[C@H](O)[C@H]6O[C@@H]6O[C@H](CO)[C@@H](O)[C@H](O)[C@H]6O)CC[C@]5(C)C4CC[C@]3(C)[C@H]1[C@@H]2C (some centres undefined) | i
CCCCNC(=O)c1ccc(-n2ccnc2SCC(=O)Nc2cccc(SC)c2)cc1 | i
Cc1cccc(S(=O)(=O)NCCNc2cc(-n3cccc3)nc(C)n2)c1 | i
O=C(Cc1noc2ccccc12)Nc1cc(OCc2ccc3c(c2)OCO3)ncn1 | i
O=C(Cc1ccccc1Cl)N1CC(c2nc(-c3cnccn3)no2)C1 | i

Results, from the start:
compound | GIRK2 activ
C[C@H]1CC[C@@]2(OC1)O[C@H]1CC3[C@@H]4CC[C@@H]5C[C@@H](O[C@@H]6O[C@H](CO)[C@@H](O[C@@H]7O[C@@H](C)[C@H](O)[C@@H](O)[C@H]7O)[C@H](O)[C@H]6O[C@@H]6O[C@H](CO)[C@@H](O)[C@H](O)[C@H]6O)CC[C@]5(C)C4CC[C@]3(C)[C@H]1[C@@H]2C (some centres undefined) | i
CCCCNC(=O)c1ccc(-n2ccnc2SCC(=O)Nc2cccc(SC)c2)cc1 | i
Cc1cccc(S(=O)(=O)NCCNc2cc(-n3cccc3)nc(C)n2)c1 | i
O=C(Cc1noc2ccccc12)Nc1cc(OCc2ccc3c(c2)OCO3)ncn1 | i
O=C(Cc1ccccc1Cl)N1CC(c2nc(-c3cnccn3)no2)C1 | i
CC(C)(C)c1csc(CN2CCN(CC(=O)N3CCCC3)CC2)n1 | i
Cc1ccc(NC(=O)Cn2nc3c(Sc4cccc(F)c4)nccn3c2=O)cc1F | i
COc1ccc(NC(=O)CSc2cc(-n3nc(C)cc3C)ncn2)cc1OC | i
CCN(CC)C(=O)Oc1ccc2c(=O)c(-c3ccc(Cl)cc3)coc2c1 | i
O=C(CN1CCN(c2ccc(F)cc2)C1=O)NCCCN1CCCC1=O | i
COc1ccc(-c2c(C)oc3cc(OCCN4CCCCC4)ccc3c2=O)cc1OC | i
O=C(CSc1nnc(CCc2nc3ccccc3[nH]2)o1)NCc1c(F)cccc1F | i
CCc1ccc(-c2noc(CSc3nc4cc5c(cc4c(=O)n3CCOC)OCO5)n2)cc1 | i
O=C(C(c1ccccc1)c1ccccc1)N1CCN(Cc2nnnn2-c2ccccc2)CC1 | i
O=C(CN1CC(c2nc(C3CC3)no2)C1)Nc1ccc2c(c1)OCO2 | i
COc1ccc(N2C(=O)CS(=O)(=O)C23C(=O)N(Cc2ccccc2Cl)c2ccccc23)cc1 (centres undefined) | i
Cc1ccc(S(=O)(=O)C(CN)c2cccs2)cc1 (centres undefined) | i
O=C(CSc1nnc(Cn2ccc(=O)[nH]c2=O)o1)NCC1CCCO1 (centres undefined) | i
COc1ccc(C(=O)NCCCn2ncccc2=O)c(OC)c1 | i
CCCN(CCC)S(=O)(=O)c1ccc2cc(OCC)ccc2c1 | i
O=C(NCc1cccs1)N1CCC(Cn2ccnc2)CC1 | i
CC(C)CN1C(=O)C(C)(C)COc2cc(NC(=O)NCc3cccs3)ccc21 | i
O=S(=O)(NCCC(O)c1ccc2c(c1)OCO2)c1c(F)cccc1F (centres undefined) | i
CN(C)CC#CCNC(=O)Nc1ccc(C(F)(F)F)cc1 | i
COc1cc(C(=O)O)ccc1OCC(=O)N1CCOCC1 | i

Already shown: 7 of the compounds above.
compound | GIRK2 activ
COc1ccc(C(=O)NCCCn2ncccc2=O)c(OC)c1 | i
CCCN(CCC)S(=O)(=O)c1ccc2cc(OCC)ccc2c1 | i
O=C(NCc1cccs1)N1CCC(Cn2ccnc2)CC1 | i
CC(C)CN1C(=O)C(C)(C)COc2cc(NC(=O)NCc3cccs3)ccc21 | i
O=S(=O)(NCCC(O)c1ccc2c(c1)OCO2)c1c(F)cccc1F (centres undefined) | i
CN(C)CC#CCNC(=O)Nc1ccc(C(F)(F)F)cc1 | i
COc1cc(C(=O)O)ccc1OCC(=O)N1CCOCC1 | i

Continued.
compound | GIRK2 activ
CC1CN(c2ccc(Oc3ccccc3)cc2)c2nc3c(c(=O)n(Cc4ccccc4)c(=O)n3C)n2C1 (centres undefined) | i
CCOc1ccc(/C=C2\SC(=S)N(c3ccc(NC(C)=O)cc3)C2=O)cc1OC | i
O=S(=O)(Cc1nc(-c2ccc(OCc3ccccc3)cc2)no1)c1ccccc1 | i
COC(=O)c1ccc(NC(=O)c2c3c(nn2C2CCS(=O)(=O)C2)CCC3)cc1 (centres undefined) | i
O=C(NCCCc1ccccc1)C1CCN(c2nc3ccccc3[nH]c2=O)CC1 | i
Cc1csc(CN2CCN(C(=O)c3ccc(Br)o3)CC2)n1 | i
CC(=O)O[C@]1(C(C)=O)CC[C@H]2[C@@H]3C[C@H](C)C4=CC(=O)CC[C@]4(C)[C@H]3CC[C@@]21C | i
O=C(NC1CC(=O)N(C2CC2)C1)c1ccc(Cl)s1 (centres undefined) | i
O=C(CSc1ccc(F)cc1)NCC(O)C1CCCCC1 (centres undefined) | i
O=C(Cn1cc(-c2ccc(F)cc2)cn1)N1CCN(c2ccccn2)CC1 | i
O=c1n(Cc2cccc(F)c2)nc2c(-c3nc(-c4ccccc4)no3)cccn12 | i
CCOC(=O)Cn1c(=O)c2c(nc3n(-c4ccccc4)c(-c4ccccc4)cn23)n(C)c1=O | i
O=C(c1ccco1)N1CCN(Cc2nnnn2-c2ccc(F)cc2)CC1 | i
Cc1c([N+](=O)[O-])cc(S(=O)(=O)NCCOc2cccc(C(F)(F)F)c2)cc1[N+](=O)[O-] | i
COC(=O)c1ccc(NC(=O)CN2CC(c3nc(-c4cccnc4)no3)C2)cc1 | i
NS(=O)(=O)c1ccc(CCNC(=O)C2CSCCC(=O)N2)cc1 (centres undefined) | i
C(=C\c1nn2c(-c3ccco3)nnc2s1)/c1cccs1 | i
CCOC(=O)N1CCN(Cc2cc(=O)oc3cc(OC)ccc23)CC1 | i
NS(=O)(=O)c1ccc(NC(=O)CCc2csc(NC(=O)c3ccc(F)cc3)n2)cc1 | i
NC(=O)CSc1nc2ncccc2c(=O)n1Cc1ccc(F)cc1 | i
CC(NC(=O)CN(C)C)C1CC2CCC1C2 (centres undefined) | i
O=C(NC1CCN(C(=O)c2cn(-c3cccc(Cl)c3)nn2)CC1)c1cccs1 | i
CS(=O)(=O)C1CCN(C(=O)c2cccc(C(F)(F)F)c2)CC1 | i
COCC1CCCN(CC(=O)Nc2ccc(OC(F)(F)F)cc2)C1 (centres undefined) | i
COCCNC(=O)N1CCN(c2nc3c(C)ccc(C)c3s2)CC1 | i

Continuation:
compound | GIRK2 activ
COc1cccc(CNC(=O)c2nnn(-c3ccccc3Cl)c2-c2ccncc2)c1 | i
COc1ccccc1NC(=O)Cn1cnc2c(-c3ccc(Cl)cc3)csc2c1=O | i
NC(=O)c1ccccc1OCC#CCNC(=O)C1CCC1 | i
Cc1ccc(Cl)cc1-n1nnc(C(=O)Nc2nccs2)c1C | i
CC(=O)Nc1ccc(S(=O)(=O)NCCC(O)c2ccccc2)cc1 (centres undefined) | i
CCc1ccc(OC)c(S(=O)(=O)NCCN2CCN(c3ccccc3OC)CC2)c1 | i
COc1cc(OC)cc(N2C(=O)C3N=NN(c4cc(OC)cc(OC)c4)C3C2=O)c1 (centres undefined) | i
CCN1C(SCC(=O)Nc2cccc(C)c2C)=NS(=O)(=O)c2ccccc21 | i
O=C(CSc1nccn1-c1cccc(C(=O)NCc2ccco2)c1)NCc1ccccc1Cl | i
COc1ccc(OC)c(NCCn2c(C)cn3c4c(=O)[nH]c(=O)n(C)c4nc23)c1 | i
CCOC(=O)C1CCN(C(=O)c2cc(=O)c(OCc3ccccc3)co2)CC1 | i
O=C(NC12CC3CC(CC(C3)C1)C2)N1Cc2cncnc2C1 | i
CC(C)(Oc1ccc(Cl)cc1)C(=O)N1CCN(Cc2ccsc2)CC1 | i
O=c1cc(-c2ccccc2)ncn1CCNS(=O)(=O)c1ccc(OC(F)(F)F)cc1 | i
CCn1cc(NC(=O)NC)c2ccccc21 | i
COCCn1c(=O)c2c(nc3n2CC(C)CN3c2ccccc2C)n(C)c1=O (centres undefined) | i
C=C(C)COc1ccc(-c2ncncc2-c2ccc(OC)cc2)c(O)c1 | i
O=C(NCCOc1ccc(-c2ccc(F)cc2)nn1)c1ccc(S(=O)(=O)N2CCOCC2)cc1 | i
O=c1cccnn1CCCNS(=O)(=O)c1ccccc1F | i
CCCCCC(O)/C=C/[C@H]1C(O)CC2OC(=O)CCC/C=C\CC21 (some centres undefined) | i
Cn1c(=O)c2c(-c3cccnc3)c(NCc3ccccc3)oc2n(C)c1=O | i
CCOc1ccc(NC(=O)CSc2ccc(-c3nc(C)no3)cn2)cc1 | i
COc1ccc(C(=O)/C=C/c2cccc(O)c2)cc1 | i
COc1c(S(=O)(=O)N2CCCCC2C)ccc(Cl)c1Cl (centres undefined) | i
CN1CCN(c2cc(OCCNC(=O)Nc3ccc(F)c(F)c3)ncn2)CC1 | i

The results go on:
molecule | GIRK2 activ
COc1cccc2sc(OC3CN(C(=O)c4cc(C)on4)C3)nc12 | i
Cc1ccc(-c2cc(=O)n(CC(=O)Nc3cccc(C)c3C)[nH]2)cc1 | i
CCOc1ccccc1NC(=O)NC1CCN(c2nccs2)CC1 | i
O=C(CSc1nnc2ccc(C(=O)NCc3ccccc3)cn12)Nc1ccccc1Br | i
Cc1ccc(S(=O)(=O)Nc2ccc(C(=O)O)cc2)cc1C | i
COc1cc2c(cc1OC)CN(C(=O)C(C)n1nc(-c3ccc(F)cc3)ccc1=O)CC2 (centres undefined) | i
Cc1ccc(S(=O)(=O)c2c(C)nn(C(C)(C)C)c2OC(=O)CCC2CCCCC2)cc1 | i
CCCCOc1ccc(C(=O)NCC2CCN(C(=O)Oc3ccccc3)CC2)cc1 | i
Clc1ccc2c(c1)CCc1cccnc1C2=C1CCNCC1 | i
COc1ccc(-n2c(C)c(C)n3c4c(=O)[nH]c(=O)n(C)c4nc23)c(OC)c1 | i

Additional structures.
molecule | GIRK2 activ
O=C(CC1CCCCC1)NC1CCN(C(=O)c2cn(-c3cccc(Cl)c3)nn2)CC1 | i
Cc1cc(C)n(-c2cc(SCC(=O)NC(C)C)ncn2)n1 | i
COc1ccccc1CNC(=O)c1nnn(-c2ccc3noc(-c4ccccc4)c3c2)c1C | i
Cc1ccc(C(=O)NC2CCCCC2)cc1-c1ccc(C(=O)NCC2CC2)cc1 | i
CCSc1nnc(NC(=O)CCc2csc3nc(C4CC4)cn23)s1 | i
CC(C)Cn1c(=O)c2ccccc2n(Cc2nc(-c3ccc(C(F)(F)F)cc3)no2)c1=O | i
COc1ccccc1NC(=O)N1CCc2nc(NC(=O)c3ccco3)sc2C1 | i
C#Cc1cccc(Nc2ncnc3ccc(OCCCCNCCS(C)(=O)=O)cc23)c1 | i
CC(Nc1ncc2c(=O)n(C3CCCC3)c(=O)[nH]c2n1)c1ccco1 (centres undefined) | i
Cc1cccc(-c2nsc3c(=O)n(CC(=O)Nc4ccc5c(c4)OCO5)cnc23)c1 | i

The list continues.
molecule | GIRK2 activ
CCOC(=O)N1CCN(C(=O)c2nnn(-c3ccc(Br)cc3)n2)CC1 | i
Cc1cc(F)ccc1S(=O)(=O)NCC(c1cccs1)N1CCOCC1 (centres undefined) | i
COCCN(CCOC)C(=O)NC(=O)c1ccc(Cl)cc1 | i
COc1cccc(-n2c(=O)[nH]c3c(C(N)=O)nc(-c4cccc(OC)c4OC)nc32)c1 | i
O=C(Cn1nc(C2CC2)n(-c2ccccc2)c1=O)NCC1CCCO1 (centres undefined) | i
Cc1ccc(NC(=O)C(=O)NCCC(O)c2ccc3c(c2)OCO3)cc1F (centres undefined) | i
Cc1cc(C)c(NC(=O)Cn2cnc3c(-c4ccncc4)nsc3c2=O)c(C)c1 | i
Cc1cc(N2C(=O)C(O)=C(C(=O)c3ccc(C)o3)C2c2ccc([N+](=O)[O-])cc2)no1 (centres undefined) | i
O=C(CCCCCn1nnc2ccccc2c1=O)Nc1ccc(C(F)(F)F)cc1 | i
CCC(C)NC(=O)Cn1c(=O)n(-c2cc(OC)cc(OC)c2)c(=O)c2ccccc21 (centres undefined) | i

New compounds follow.
molecule | GIRK2 activ
CCOc1ccccc1NC(=O)N1CCC(S(=O)(=O)Cc2ccco2)CC1 | i
COc1ccc(S(=O)(=O)NCC2(c3ccccc3OC)CCOCC2)cc1C | i
COc1cccc2sc(OC3CN(C(=O)c4ccn(C)n4)C3)nc12 | i
COc1ccc(-c2ccc(C(=O)Nc3nccs3)o2)c([N+](=O)[O-])c1 | i
O=C(NCc1cccs1)c1c(O)c2sccc2[nH]c1=O | i
CSc1cccc2sc(N(CCN(C)C)C(=O)c3cccs3)nc12 | i
CC(=O)Nc1cccc(NC(=O)CSc2nnc(C(C)C)c3cnn(-c4ccc(F)cc4)c23)c1 | i
Cc1cccc(-n2nnnc2SCC(=O)NCCO)c1 | i
Cc1occc(=O)c1O | i
CCC(=O)Nc1ccc(S(=O)(=O)N2CCC3(CC2)OCCS3)c(C)c1 | i

(further entries)
molecule | GIRK2 activ
CN1CCOc2ccc(NC(=O)c3ccc4ncsc4c3)cc2C1=O | i
COc1ccc(-c2ccc(N3CCN(S(=O)(=O)c4cc(F)ccc4F)CC3)nn2)cc1 | i
Cc1cc(C)n(-c2ccc(C(=O)Nc3cc(N4CCOCC4)ncn3)nn2)n1 | i
CN(CCOc1ccc(CC2SC(O)=NC2=O)cc1)c1ccccn1 (centres undefined) | i
C=C(C)Cn1c(=O)c2c(nc3n(-c4ccc(OC)cc4)c(-c4ccccc4)cn23)n(C)c1=O | i
CCOc1ccc(NC(=O)CSc2nccn(-c3ccc(C)cc3)c2=O)cc1 | i
O=C(Cc1csc(Nc2ncccn2)n1)Nc1nc(-c2cccnc2)cs1 | i
CC(=O)NC(CC(C)C)C(=O)NC(C)C(=O)NC(CO)C(=O)O (centres undefined) | i
CCCCS(=O)(=O)N1CCC(Cn2ccnc2)CC1 | i
O=C(Nc1n[nH]c2cc(-c3ccc(F)cc3)ccc12)C1CC1 | i

The list continues.
molecule | GIRK2 activ
CC(=O)N1CCc2c(sc(NC(=O)c3cc(C)no3)c2-c2nc3ccccc3s2)C1 | i
O=C(CSCc1ccccc1)Nc1nc2c(s1)COCC2 | i
COc1cccc(NC(=O)Cn2cc(S(=O)(=O)N3CCCCC3)ccc2=O)c1 | i
O=C(NCCc1nc(C2CC2)cc(C(F)(F)F)n1)c1c(F)cccc1Cl | i
CCOCCn1c(=O)c2c(nc3n(C4CCCC4)c(C)c(C)n23)n(C)c1=O | i

Screening data from PubChem BioAssay.
